Assay outcomes as filed in PubChem.
Mtb bLac sens: beta-lactam sensitization of Mtb H37Rv. hit rate 0.27% among 330,000. inhibition, % at 25 µM. AID 434955. M. tuberculosis H37Rv growth with meropenem, percent inhibition; hits of this screen are not shown here;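 active = about 74% or more and at least 40 points above the plate without the antibiotic, then above 30% in a dose series; inconclusive = first-round hits that could not be retested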;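 also: growth measured after seven days incubation then overnight dye step; 0% = bacteria only wells and 100% = bacteria with antibiotic; twin plates without the antibiotic show which effects depend on it; some results filed as inactive read as strong as hits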
Starred values were filed as active, the others as inactive; ? = inconclusive. These rows are one share of the data, so the mix of outcomes need not match the whole.

SMILES,Mtb bLac sens
CCC1C=CC=CC[C@H](C)[C@@H](O)[C@](C)(O)C(=O)[C@@H](C)[C@H](O)[C@@H](C)C(=O)[C@H](C)[C@@H](O)[C@H](C)C=CC(=O)OC2[C@@H](C)C(CC1)OC1(CC[C@@H](C)C(C[C@H](C)O)O1)[C@@H]2C (stereo partly drawn),90.1
S=C(NC1CC1)SCc1ccco1,8.8
CCOC(=O)c1[nH]c(C)c(C(=O)OCC(=O)NCc2ccc(OC)cc2)c1C,-5.5
COc1cccc(NC(=O)CN(C)CC(=O)Nc2ccc3c(c2)OCO3)c1,-3.5
CCOC(=O)C1CCN(C(=O)CCNS(=O)(=O)c2ccc(C)cc2)CC1,0.8
O=C(CCCN1CCC(O)(c2ccc(Br)cc2)CC1)c1ccc(F)cc1,-0.1
O=c1cc(-c2ccc(O)cc2)oc2c(-c3c(O)cc(O)c4c(=O)cc(-c5ccc(O)cc5)oc34)c(O)cc(O)c12,4.4
COc1ccc(SC[C@H](Cc2ccccc2)N2CC[C@@H](C)CCC2=O)cc1,1.6
COc1ccc(NC(=O)COC(=O)c2ccc(-n3cnnn3)cc2)c([N+](=O)[O-])c1,-0.3
COC(=O)C1=C(c2ccc(F)cc2F)C[C@@H]2CC[C@H]1N2C(=O)NCCCOC(C)C,7.2
CCn1nc(C(=O)N2CCN(Cc3nc4ccccc4s3)CC2)c2ccccc2c1=O,-2.2
CN1CCN(C(=O)CNC(=O)c2cccs2)CC1,-2.1
CCOc1ccccc1N(CC(=O)NCc1ccco1)C(=O)CCC(=O)Nc1nccs1,-0.7
Cc1ccc(S(=O)(=O)N2[C@@H](c3ccc(F)cc3)C(C(=O)O)=CC[C@H]2c2cccc(C)c2)cc1,12.6
COc1ccc(NC(=O)C(=O)N/N=C\c2ccc(CNC(=O)C(=O)Nc3ccc(C)c(C)c3)o2)c(OC)c1,1.9
CC(C)(C)CNC(=O)c1ccc2c(c1)S(=O)(=O)c1cc(Cl)ccc1C2=O,-1.5
Oc1cccc2cccnc12,-8.4
CC(C)OC(=O)c1ccc(COc2ccc3ccc(=O)oc3c2)o1,7.6
Cc1cccc(C(=O)OCC(=O)N2CCN(C(=O)c3ccco3)CC2)c1O,3.1
CCC(C)NC(=O)C1CCN(S(=O)(=O)c2cccc3nonc23)CC1 (stereo not drawn),-5.9
CCOc1ncccc1C(=O)OCC(=O)NCc1ccccc1,2.9
C[C@H](CO)N1C[C@H](C)[C@@H](CN(C)S(=O)(=O)c2ccccc2)Oc2c(NC(=O)c3ccncc3)cccc2C1=O,-2.9
COc1cc(OC)c(C(=O)OC(C)C(=O)NCc2ccc3c(c2)OCO3)cc1OC (stereo not drawn),-4.1
CC(=O)Nc1ccc(CNc2ncnc3ccc(-c4c(C)noc4C)cc23)cc1,2.8
CC(C)c1ccc(NC(=O)NC2(C(=O)NCc3cccnc3)CCCCC2)cc1,-5.4
CCOC(=O)CCCC(=O)Nc1ncnc2c1C(c1ccccc1)c1c(ccc3ccccc13)O2 (stereo not drawn),7.3
Cc1ccc(C)c(NC(=O)CCN2CCCCC2)c1,-2.1
OC[C@H]1O[C@H](OC[C@H]2OC(O)[C@H](O)[C@@H](O)[C@@H]2O)[C@H](O)[C@@H](O)[C@@H]1O (stereo partly drawn),-0.2
CN(CC(=O)Nc1ccccc1Br)C(=O)c1ccc2c(=O)n3c(nc2c1)CCC3,-0.5
COCCn1c(N)c(N(Cc2ccccc2)C(=O)COc2ccccc2F)c(=O)[nH]c1=O,-6.5
CC(=O)Nc1ccc(NC(=O)C2CCN(S(=O)(=O)c3ccc4c(c3)OCCO4)CC2)cc1,-8.9
O=C(NCc1ccco1)C(=O)NCC1OCCN1C(=O)c1ccc(Cl)cc1 (stereo not drawn),-7.2
CC1CN(C(=O)CSc2nnc(-c3cccs3)n2N)CC(C)O1 (stereo not drawn),-9.7
CC(NC(=O)C(C)N1C(=O)c2cccc([N+](=O)[O-])c2C1=O)c1ccccc1 (stereo not drawn),-2.4
CC(Sc1nc2c(c(=O)[nH]1)CCCC2)C(=O)Nc1ccc(Br)cn1 (stereo not drawn),7.7
Cc1csc(=O)n1CCC(=O)OCc1nnc(-c2ccccc2Cl)o1,5.4
Cc1ccccc1-c1nnc(SC(C)C(=O)NC2CCCC2)o1 (stereo not drawn),-6.7
c1ccc2cc(CCO[C@H]3CCCCO3)ncc2c1,2.5
CCN(CC)C(=O)CSc1nnc(SC(C)C(=O)NC2CC2)s1 (stereo not drawn),-9.9
COCc1c(C(=O)N2CCN(S(=O)(=O)c3ccccc3Cl)CC2)oc2ccccc12,18.9
COc1ccc(CCNC(=O)CN(C)S(=O)(=O)c2cccs2)cc1,-6.8
COc1cc(C(=O)NCc2nc(C)cs2)ccc1OC1CCN(C(C)=O)CC1,?
O=S(=O)(NCCCCNS(=O)(=O)c1c(F)cccc1F)c1ccc2c(c1)OCCO2,-2.9
Cc1c(NC(=O)C(C)Oc2cccc(F)c2)c(=O)n(-c2ccccc2)n1C (stereo not drawn),-5.2
Cc1cc(=O)[nH]c(SCC(=O)N2CC3(C)CC2CC(C)(C)C3)n1 (stereo not drawn),-6.5
CCc1ccc(NC(=O)C(C)Sc2ccc(S(=O)(=O)N3CCN(C)CC3)cn2)cc1 (stereo not drawn),-0.9
CC(=O)Nc1ccc(NC(=O)CCN2C(=O)C3CC=CCC3C2=O)cc1 (stereo not drawn),4.4
O=C(Nc1ccc(C(F)(F)F)cc1)C1=NN(C2CCS(=O)(=O)C2)C(=O)CC1 (stereo not drawn),2.9

The listing continues:
Structure	Mtb bLac sens
O=C(CN1C(=O)CNC1=O)Nc1cc(Cl)cc(Cl)c1	-7.3
CN(Cc1cnn(Cc2ccccc2)c1)C(=O)CN=C1NS(=O)(=O)c2ccccc21	-1.2
O=[N+]([O-])c1ccc(Cl)c(S(=O)(=O)/N=C(/Nc2cccnc2)c2ccccc2)c1	0.3
O=C(CN(c1ccccc1)S(=O)(=O)c1ccc(F)cc1)NCc1cccs1	-5.7
Cc1ccccc1C(=O)N1CCC(C(=O)N2CCN(c3ncccn3)CC2)CC1	0.4
C=CC[C@@H](CC(=O)NCCO)C(=O)N[C@@H](COC(=O)[C@@H](CC=C)CC(=O)OC(C)(C)C)Cc1ccccc1	-8.6
CC(=O)c1ccc(-c2ccc(C(=O)N(C)Cc3nc4ccccc4c(=O)[nH]3)o2)cc1	3.2
COc1ccc(C2=CC(=O)C[C@H](c3ccc(F)cc3)C2)c(OC)c1	52.2
COc1ccc(CNC(=O)COC(=O)C(CCSC)NC(=O)c2ccco2)cc1OC (stereo not drawn)	-8.0
Cc1c(NS(=O)(=O)c2cc(C(=O)NCc3cccnc3)ccc2Cl)c(=O)n(-c2ccccc2)n1C	-1.2
CCCNC(=O)N1[C@H]2CC[C@@H]1C(C(=O)OC)=C(c1cccc(C#N)c1)C2	-5.8
CCN(CC(=O)NCc1ccc(Cl)cc1)C(=O)CSc1cccc(C(F)(F)F)c1	-7.4
COc1ccc(NC(=O)N(C)C[C@H]2Oc3c(NC(=O)NC(C)C)cccc3C(=O)N([C@H](C)CO)C[C@@H]2C)cc1	5.1
CCNC(=O)N(CC)C[C@H]1N[C@@](CC)(C(=O)OC)[C@H]2C(=O)N(Cc3ccccc3)C(=O)[C@@H]12	-2.6
O=C(COc1ccc([N+](=O)[O-])cc1Cl)NCCN1C(=O)CSC1=O	5.5
O=C(COc1ccccc1Br)NCCC1=CCCCC1	1.0
COc1ccc(NC(=O)c2cc(-c3ccccc3)nc3c2cnn3C(C)C)cc1	-4.0
CCOc1ccc(C(=O)NCC(=O)N2CCN(Cc3ccccc3)CC2)cc1	-11.8
CCCCN(C(=O)c1ccc(-c2ccc([N+](=O)[O-])cc2)o1)c1c(N)n(CCCC)c(=O)[nH]c1=O	-5.0
O=C(COC(=O)c1cc(=O)[nH]c2ccccc12)NCc1ccc(F)cc1	2.5
CC(=O)Nc1ccc(S(=O)(=O)Nc2nc3ccccc3nc2Nc2ccc(C(=O)O)c(O)c2)cc1	-3.3
CCN1CCN(c2ccc(S(=O)(=O)N3CCCCC3)cc2N)CC1	-0.4
COc1ccc(N2CCN(C(=O)CNC(=O)c3ccc4ccccc4c3)CC2)cc1	12.2
COC(=O)[C@]1(Cc2ccccc2)N[C@H](CN(C)S(=O)(=O)c2ccc(C(F)(F)F)cc2)[C@@H]2C(=O)N(Cc3ccccc3)C(=O)[C@@H]21	-5.6
CCOC(=O)C1=C(COC(=O)/C=C/c2cccc(F)c2)NC(=O)NC1C (stereo not drawn)	1.7
Cc1sc2ncnc(SCC(=O)Nc3cccc(S(N)(=O)=O)c3)c2c1C	-12.5
O=C(CSc1nc2ccccc2c(=O)n1CCCN1CCOCC1)Nc1ccc(F)c(Cl)c1	74.3
CN(Cc1ccccc1)C(=O)CNC(=O)C12CC3CC(CC(C3)C1)C2	6.5
C=CC[C@H](CC(=O)N(CCO)Cc1ccccc1)C(=O)N[C@H](COC(=O)[C@@H](CC=C)Cc1ccc(F)cc1)C(C)(C)C	4.7
Cc1cccn2c(=O)c3cc(C(=O)NCC4CCCO4)c(=N)n(CC4CCCO4)c3nc12 (stereo not drawn)	-10.4
COc1ccc(S(=O)(=O)N2CCCCC2)cc1NC(=O)Cc1ccsc1	-4.4
COc1ccc(C)cc1NC(=O)CN1C(=O)C(=O)N(C2CCCC2)C1=O	-4.0
NC(=O)C1CCN(C(=O)C2CC(=O)N(c3ccc4c(c3)OCCO4)C2)CC1 (stereo not drawn)	-6.4
O=C(NCc1cccnc1)Nc1cccc(Cl)c1	-3.8
CC1CCCC(C)N1C(=O)CN1C(=O)c2ccccc2S1(=O)=O (stereo not drawn)	-1.9
O=C(COc1c(F)c(F)cc(F)c1F)NNC(=O)CC1CCS(=O)(=O)C1 (stereo not drawn)	-7.5
Cc1csc(SCC(=O)NC2CCS(=O)(=O)C2)n1 (stereo not drawn)	-4.2
CCN(CC)C(=O)c1nc[nH]c1C(=O)N(CC)CC	-7.2
O=C(COC(=O)c1ccc([N+](=O)[O-])o1)Nc1ccc2c(c1)OCO2	82.6
Cc1cc(C(=O)N/N=C\c2cc(C(C)(C)C)c(O)c(C(C)(C)C)c2)n[nH]1	-2.5
COc1cc(C(=O)OCCNC(=O)c2cccnc2)cc(OC)c1OC	-0.4
COc1ccc(NS(=O)(=O)c2ccc(C(=O)N3CCCCCC3)cc2)cc1	-1.5
COc1ccc(/C=C/C(=O)OCC(=O)NC2CC2)c(OC)c1	3.0
Cn1nnnc1Sc1ncnc2scc(-c3ccccc3Br)c12	1.4
COCCO[C@H]1CCC2C3CC=C4C[C@@H](O)CC[C@]4(C)C3CC[C@@]21C (stereo partly drawn)	-8.1
Cc1ccc(C(=O)OCC(=O)Nc2cc(C(C)(C)C)no2)c(C)c1	-2.2
COC(=O)c1c(C)[nH]c(C(=O)C(C)OC(=O)c2cc(C)oc2C)c1C (stereo not drawn)	-1.2
CCn1c(SCC(=O)Nc2ccc3[nH]c(=O)[nH]c3c2)nc2ccccc21	-1.6
Clc1c(-c2ccccc2)nc2ccccn12	-5.6
O=C(NCC(=O)N1CCN(C(=O)c2ccccc2)CC1)c1ccc(Cl)cc1Cl	-3.4
O=C(COC(=O)C1CCCCC1)Nc1cccc(F)c1	5.3
O=C(CC(NCCN1CCOCC1)C(=O)O)Nc1cccc(Cl)c1 (stereo not drawn)	-0.5
CN=C(Nc1cccc(S(=O)(=O)N2CCOCC2)c1)c1ccccc1	-3.0
COCCN(Cc1ccccc1)C(=O)Cc1ccc(S(=O)(=O)N2CCOCC2)s1	-2.2
CCCCN(C(=O)c1cc2c(s1)CCCCC2)c1c(N)n(CCC)c(=O)[nH]c1=O	-12.3
O=C(NCCNc1ccc([N+](=O)[O-])cc1Cl)c1ccccc1F	0.3
CSc1ccccc1C(=O)OCC(=O)Nc1ccc(N2CCOCC2)cc1	2.1
COc1cc(C(=O)N2CCC(C(N)=O)CC2)ccc1OCc1c(C)noc1C	1.1
C[C@H](NC(=O)c1ccccc1)C(=O)OCC(=O)Nc1sccc1C(N)=O	0.5
CCC1=NN2C(=N)/C(=C\c3ccc(OCCOc4ccccc4)c(OC)c3)C(=O)N=C2S1	0.5

Going on with the list.
Structure	Mtb bLac sens
Cc1c(Cl)cccc1NC(=O)CNC(=O)CCS(=O)(=O)c1ccc(F)cc1	8.5
CC1CN(C(=O)c2ccccc2OCc2ccc(Cl)cc2Cl)CC(C)O1 (stereo not drawn)	6.4
COc1ccc(C2=NCCn3nc4cc(OC)ccc4c32)cc1	-4.7
Cc1nc(SCC(=O)NCC2CCCO2)nc(C)c1C (stereo not drawn)	-2.0
S=C(NCCc1ccccc1)NCCN1CCOCC1	0.5
CCC(C)(C)c1ccc(O)cc1	6.7
Cc1cc(C(=O)COC(=O)c2cccnc2Cl)c(C)n1C	-1.1
O=C(CN1C(=O)NC2(CCCCCC2)C1=O)Nc1ccc(Br)cc1Br	?
Nc1ncc([N+](=O)[O-])s1	1.3
O=C(CNC(=O)c1nn(Cc2ccccc2)c(=O)c2ccccc12)Nc1ccc(F)c(F)c1F	0.7
CC(OC(=O)c1ccc(F)c(S(=O)(=O)N2CCOCC2)c1)C(=O)NCC1CCCCC1 (stereo not drawn)	-7.7
